gsp antagonist: qHTS for Antagonists of gsp, the Etiologic Mutation Responsible for Fibrous Dysplasia/McCune-Albright Syndrome: qHTS | gsp-mutant cells, cAMP HTRF, 30 min; control for the full effect not named in the record | Potency, µM (series often up to 76.9 µM), without a hit: top-dose activity change, negative = inhibition, usual class: inhibitors | 340,000 compounds, 0.4% hits | AID 624288, 2012; active = falling curve of any shape with a large fitted effect; inconclusive = falling curve, mostly with a smaller effect; inactive = flat or rising curve; cell line not stated here;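 note: intracellular cAMP measured with PDE inhibitor Ro 20-1724 present during compound exposure; potency is the fitted concentration of half-maximal effect; % is set by controls: 0 for no effect and ±100 for the full control effect; nearly all actives have a fitted effect of over 65% in size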
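HTRF cAMP read-out (cAMP-d2 plus anti-cAMP antibody-K in lysis buffer, 30 min RT). Before lysis, cells are exposed to compounds with […] for 30 min at 37C in DPBS containing Ca/Mg, BSA and Tween 20.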
Menin MLL FP FL: qHTS Assay for Inhibitors Targeting the Menin-MLL Interaction in MLL Related Leukemias: Competition With Fluorescein Labeled MLL-derived Peptide; Fluorescence polarization, fluorescein-MLL peptide displacement from menin; FP activity change, % at 61.4 µM; 290,000 tested, under 10 active; AID 1766, 2009; inconclusive = falling polarisation curve, or a change in total fluorescence; inactive = total fluorescence flat and polarisation flat or rising; no compound was filed as active; the % refers to the polarisation; negative = inhibition;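 note: % of control where 0% means no effect; inhibitors lower the polarisation; unlabelled MLL peptide was the positive control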
TRPML1 ag: qHTS for Agonists of the Human Mucolipin Transient Receptor Potential 1 (TRPML1); TRPML1-expressing cells, Ca2+ dye fluorescence, FDSS; host cell line not named in the record; reference of the full effect not given here; 410,000 compounds, 0.12% hits; Mucolipin-1 (Homo sapiens), Q9GZU1; activation, % (concentration not given with the values); in the data active = activation above about 50%; inconclusive = about 30% to 50%; inactive = below about 30%; note: 0% is about no effect; the text of the record puts the active cut at 80%
Target sequence (Q9GZU1 whole entry, looked up): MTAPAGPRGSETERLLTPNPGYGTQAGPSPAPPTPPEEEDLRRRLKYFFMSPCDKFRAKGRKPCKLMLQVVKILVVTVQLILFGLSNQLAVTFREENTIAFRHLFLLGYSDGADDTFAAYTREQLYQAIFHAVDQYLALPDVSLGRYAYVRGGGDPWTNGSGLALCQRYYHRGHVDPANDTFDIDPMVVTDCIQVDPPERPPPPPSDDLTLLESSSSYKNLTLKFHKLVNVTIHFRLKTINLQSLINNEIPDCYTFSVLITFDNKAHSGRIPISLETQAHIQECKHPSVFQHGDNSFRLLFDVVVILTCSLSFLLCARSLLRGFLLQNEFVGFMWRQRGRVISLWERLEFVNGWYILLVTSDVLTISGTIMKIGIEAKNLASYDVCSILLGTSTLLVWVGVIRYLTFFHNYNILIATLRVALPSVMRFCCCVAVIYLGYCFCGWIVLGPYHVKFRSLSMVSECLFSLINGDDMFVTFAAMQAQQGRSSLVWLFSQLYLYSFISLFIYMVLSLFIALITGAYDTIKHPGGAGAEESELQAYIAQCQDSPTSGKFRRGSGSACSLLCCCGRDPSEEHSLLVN
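TRPML1-DL cells, Tet-induced overnight (~16 h, 37 degrees C), loaded 45-90 min at room temperature with Ca8 no-wash calcium dye plus quencher. FDSS fluorescence: 10 s baseline, compound pin-transfer, 110 s agonist read, then EC80 54-4 (4uM final) and 110 s antagonist read.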
TRPML1 inh: qHTS for Inhibitors of the Human Mucolipin Transient Receptor Potential 1 (TRPML1) | activity change, negative = inhibition, % (no concentration beside the values) | 390,000 compounds, 0.02% hits | AID 624415, 2012 | Mucolipin-1 (Homo sapiens), Q9GZU1 | TRPML1-inducible cells, Ca2+ dye fluorescence, FDSS; active compounds read low; inhibition of EC80 agonist-evoked calcium signal; in the data active means activity change below about -50%; inconclusive means about -30% to -50%; inactive means above about -30%;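 note: stimulus is agonist 54-4 at its EC80 concentration; % is set by controls: 0 for no effect and ±100 for the full control effect; compound concentration not given in the record; the text of the record puts the active cut at -80%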
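Tet-induced TRPML1-DL cells loaded with Ca8 no-wash calcium dye were read kinetically on FDSS. Compound addition was followed by EC80 agonist 54-4 (4 uM final); inhibition was read over 110 s.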
gsp agonist: qHTS for Agonist of gsp, the Etiologic Mutation Responsible for Fibrous Dysplasia/McCune-Albright Syndrome: qHTS. gsp mutant cells, cAMP HTRF, 30 min; control for the full effect not named in the record. Potency, µM (titrated, usually from 76.9 µM), for the others: top-dose activation (cAMP increase), actives largely listed as activators. 340,000 compounds, 0.13% hits. AID 624287, 2012; active = well fitted activation curve with a large enough effect; inconclusive = small, poorly fitted or top-dose-only effect, or another doubt; inactive = no such curve, though single readings can be large or run the other way; cell line not stated here;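 note: phosphodiesterase inhibitor Ro 20-1724 added with compounds to block cAMP breakdown; potency is the fitted concentration of half-maximal effect; nearly all actives have a fitted effect of over 60% in size; about a fifth of the inactives were tested at one dose only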
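Cells stably selected in G418 were plated at 2000/well, grown 16-24 hr, then given compounds in DMSO with the PDE inhibitor […] (300 uM solution added) for 30 min at 37C; cAMP was read by HTRF.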
ClpP mod: qHTS Assay for Activators of ClpP; ATP-dependent Clp protease proteolytic subunit (Bacillus subtilis (strain 168)), P80244; 340,000 compounds, 1.9% hits; Potency, µM (titrated, usually from 57.5 µM), inactives show top-dose activity change, negative = active; purified B. subtilis ClpP, FRET peptide cleavage, 20 min; active = well fitted falling curve with a large enough effect; inconclusive = small, poorly fitted or top-dose-only effect; inactive = no such curve, though single readings can be large or run the other way; note: potency is the fitted concentration of half-maximal effect; the source files actives as falling curves though it sought activators and does not explain the sign; nearly all actives have a fitted effect of over 65% in size; many hits overshoot -100%
Target sequence (P80244 whole entry, looked up): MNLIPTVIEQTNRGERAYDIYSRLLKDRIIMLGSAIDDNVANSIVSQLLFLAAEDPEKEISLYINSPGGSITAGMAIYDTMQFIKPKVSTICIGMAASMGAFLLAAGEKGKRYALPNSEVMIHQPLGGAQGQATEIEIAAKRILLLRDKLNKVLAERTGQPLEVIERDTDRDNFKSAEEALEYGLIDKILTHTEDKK
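Purified B. subtilis ClpP, 10 microg/mL final in Tris/HCl pH8 with KCl, BSA, glycerol and Tween-20, cleaved an Abz/nitrotyrosine-quenched decapeptide. Fluorescence (ex 320, em 430) was read at 0 and 20 min at room temperature. Delta was normalized to 5.8 microM ADEP and DMSO/no-enzyme controls.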
* hit, by the source's call; ? = inconclusive; . = no result given; [ ] = remark or other dose.

canonical_smiles	gsp antagonist	Menin MLL FP FL	TRPML1 ag	TRPML1 inh	gsp agonist	ClpP mod
CCOc1cc(CNc2ccc(O)cc2)cc(Br)c1OCc1ccccc1	.	.	3.8	51	.	-45%
CCC1CCCCN1CCCNC(=O)c1ccc2c(=O)n(CCOC)c(=O)[nH]c2c1 (centres undefined)	12%	-0.9	-0.1	8	1%	.
CCOC(=O)c1[nH]c(C)c(C(=O)Nc2ccc(F)cc2)c1C	-3%	0.0	0.2	-5	-4%	1.5%
O=C(CSc1nnnn1-c1ccccc1)Nc1ccc(N2CCOCC2)c(Cl)c1	-13%	0.6	0.0	-12	-12%	-0.6%
COc1ccc(/C=C2\COc3ccccc3C2=O)cc1OC	11%	1.4	0.0	2	6%[15.4 µM]	1.6%
Cc1nn(-c2ccccc2)c2c1C(c1cccs1)C(C#N)=C(N)O2 (centres undefined)	0%	6.3	-0.6	-1	-23%	-1.4%
CCCCOC(=O)C1=C(C)Nc2ncnn2C1c1ccc(OC)c(OC)c1 (centres undefined)	-8%	0.2	-0.6	-14	-37%[inhibitor]	0.2%
COc1ccc2c(c1)c1c(c(=O)n(-c3ccc(F)c(Cl)c3)c(=O)n1Cc1ccccc1F)n2C	.	.	-0.1	4	.	?
C=CCc1cccc(/C=N/NC(=O)CCCNc2ccc(C)cc2)c1O	-9%	1.7	5.5	5	-13%	2.0%
O=C(Nc1nc2n(n1)C(c1ccccc1)C=C(c1ccc(Cl)cc1)N2)c1ccco1 (centres undefined)	.	.	8.4	16	.	4.1%
CC(Oc1ccccc1)c1ccn[nH]1 (centres undefined)	-1%	-2.4	-1.0	-4	-1%[15.4 µM]	.
O=C(NC(Cc1ccccc1)C(=O)O)/C(=C/c1ccccc1)NC(=O)c1ccco1 (centres undefined)	5%	-1.3	0.7	6	?	.
Cn1nnnc1SCCNS(=O)(=O)c1ccccc1	12%	-0.8	0.7	-2	-18%	0.8%
CCCCC1CCC(C(=O)N(CCCC)c2c(N)n(CCCC)c(=O)[nH]c2=O)CC1 (centres undefined)	4%	.	0.3	-1	-5%[15.4 µM]	-1.7%
CCOc1ccccc1C(=O)N(Cc1ccc(C)o1)C1CCS(=O)(=O)C1 (centres undefined)	-7%	2.8	0.1	4	-36%[inhibitor]	-0.3%
Cc1ccc(NC(=O)CN(C)C(=O)CCCN2C(=O)c3ccccc3C2=O)cc1	-8%	4.7	0.2	-12	13%	1.5%
CCOC(=O)Nc1ccc(S(=O)(=O)N2CCC(c3nc4ccccc4[nH]3)CC2)cc1	.	.	-0.7	-9	-72%[inhibitor]	-0.7%
C[C@H]1CC[C@]2(O[C@H](CCO)C[C@H](O)[C@H]2O)O1	9%	.	1.4	-16	.	0.7%
CCOC(=O)C1CCN(c2c(NCCCN3CCCCC3)c(=O)c2=O)CC1	9%	-1.2	0.3	4	-15%	-0.1%
CCCOc1ccc(C(=O)NCC2OCCc3ccccc32)cc1 (centres undefined)	.	.	3.0	9	.	-2.0%

canonical_smiles	gsp antagonist	Menin MLL FP FL	TRPML1 ag	TRPML1 inh	gsp agonist	ClpP mod
C=CCN1CC2(c3ccccc3)CN(CC=C)CC(c3ccccc3)(C1)C2=O	6%	2.5	-0.8	-6	-38%[inhibitor]	.
CCCC1S/C(=N/N=C/c2ccc(OC)cc2)N(Cc2ccc(OC)cc2)C1=O (centres undefined)	-3%	4.3	2.7	11	0%	-0.1%
CC(Oc1cccc(Cl)c1)C(=O)N1CCCN(C)CC1 (centres undefined)	12%	.	0.1	3	12%	-1.2%
COc1ccc(OC)c(NC(=O)CC2Oc3ccccc3NC2=O)c1 (centres undefined)	-10%	9.2	2.0	1	-3%	-1.5%
CCCn1c(-c2ccccc2)nc2c(=O)n(C)c(=O)[nH]c21	-8%	5.1	-0.7	6	-5%	?
CCCCN(CC)CCNC(=O)Cn1c(=O)c2cccn2c2cccnc21	.	.	0.7	8	.	?
COc1ccc(S(=O)(=O)N2CCC(c3nnnn3-c3ccccc3)CC2)cc1OC	.	.	0.2	7	.	-3.1%
CC(C)C1Cc2nc(Cl)c(C#N)cc2CO1 (centres undefined)	-7%	5.7	0.6	24	0%[15.4 µM]	0.7%
COc1ccc(CCN2CC(C(=O)NCc3ccccc3)CCC2=O)cc1 (centres undefined)	1%	.	0.2	0	16%	-0.2%
CC(C(=O)NCCc1ccc(F)cc1)N1CCN(Cc2ccccc2)CC1 (centres undefined)	9%	-3.1	1.3	16	18%[15.4 µM]	.
CCOc1ccccc1N(CC(=O)Nc1cccnc1)S(=O)(=O)c1ccc(C)cc1	.	-0.1	-0.5	31	-4%[15.4 µM]	.
Cc1ccc(/C=N/NC(=O)c2cccc(NC(=O)c3ccccc3Cl)c2)o1	-10%	-5.9	-0.4	-13	1%	.
Cc1oc2ncnc(N3CCOCC3)c2c1C(=O)Nc1ccc(Br)cc1F	.	.	0.7	12	.	-14%
Nc1[nH]n(-c2c(Cl)cc(Cl)cc2Cl)c(=O)c1N=Nc1ccc(S(=O)(=O)Nc2ncccn2)cc1	-8%	.	-0.5	-3	4%	-2.5%
Cc1ccc(OCCC(=O)Nc2ccccc2C(=O)NC2CC2)cc1	5%	.	0.4	51	?	-2.3%
CCCc1cc(C(=O)N2CCCC(Cc3cccc(Cl)c3)(C(=O)OCC)C2)n(C)n1 (centres undefined)	-12%	1.4	1.5	6	-17%	-1.5%
CC1=NN(c2ccccc2)C(=O)C1(C)C	7%	4.3	-0.5	-16	-5%	-1.1%
CS(=O)(=O)c1ccc2c(c1)SC1=NC(=O)/C(=C/c3ccco3)C(=N)N12	?	?	1.4	-13	-50%[inhibitor]	-1.2%
Cc1ccc(-c2nnn(CC(=O)N(Cc3ccco3)C(C(=O)NC(C)(C)C)c3ccc(C)o3)n2)o1 (centres undefined)	-15%	1.7	1.3	-18	-3%	.
CCc1ccc(NC(=O)C(C)OC(=O)/C=C/c2cccc([N+](=O)[O-])c2)cc1 (centres undefined)	4%	-0.3	0.4	17	5%[15.4 µM]	-0.6%

canonical_smiles	gsp antagonist	Menin MLL FP FL	TRPML1 ag	TRPML1 inh	gsp agonist	ClpP mod
CCCCc1nc2cc(C(=O)N(C)C(C)c3ccccn3)ccc2o1 (centres undefined)	9%	-0.8	0.9	-11	-22%	-0.4%
COC(=O)c1c(NC(=O)CSc2ccccc2N)sc(C)c1C	-8%	-3.8	2.9	4	8%[15.4 µM]	.
Cc1cc(NC(=O)CN2CCN(C/C=C/c3ccccc3)CC2)c([N+](=O)[O-])cc1C	7%	6.8	0.2	3	?	0.9%
Cc1sc2nc(SCC(=O)N(CCO)CCO)nc(N)c2c1C	1%	-1.9	-0.2	13	?	.
COc1ccccc1C(C(=O)NC1CCCCC1)N(C(=O)c1csnn1)C1CC1 (centres undefined)	.	-17	-0.2	7	0%[15.4 µM]	.
c1ccc(Cc2nnc3sc(C4COc5ccccc5O4)nn23)cc1 (centres undefined)	12%	0.5	1.3	-14	-37%[inhibitor]	-1.2%
COc1ccc(N2CCN(C(=O)CSc3nnc(-c4ccco4)n3C)CC2)cc1	-7%	-3.4	-0.2	-1	0%	.
CC(C)(C)C(=O)NNC(=O)C1CC1(c1ccccc1)c1ccccc1 (centres undefined)	5%	10	1.3	-12	-38%[inhibitor]	.
COc1ccccc1/C=C/c1nc(C#N)c(NC(C)c2ccccc2)o1 (centres undefined)	.	.	2.4	51	.	41%
COc1cccc(NC(=O)N2CCCC2C(=O)Nc2ccc3c(c2)OCO3)c1 (centres undefined)	7%	-1.8	0.5	10	-27%	-0.2%
COc1ccc(CNC(=O)CCC(=O)N2CCN(C(C)=O)CC2)cc1	3%	5.2	0.9	-5	-70%	.
COc1ccc(C(=O)NCC(=O)OCC(=O)Nc2cccc(S(=O)(=O)N3CCCC3)c2)cc1	-11%	-1.0	2.0	3	-13%	-2.1%
CS(=O)(=O)Nc1ccccc1-c1ccc2nccn2c1	.	.	0.1	26	.	-20%
O=C(COc1ccccc1)N1CCN(C(=O)Cc2ccccc2)CC1	-16%	-1.1	0.4	-6	-14%	-0.8%
CCOC(=O)/C(C#N)=C/C1=C(N2CCOCC2)CC(C)(C)OC1	-5%	-1.4	0.6	39	0%[15.4 µM]	.
O=C(CSc1nc2ccccc2[nH]1)NC1CCCc2ccccc21 (centres undefined)	-9%	-0.9	0.6	-5	-1%	2.5%
CCCCCCCCCCCCN1C(=O)CSC1c1cccnc1 (centres undefined)	?	5.0	-0.1	0	13%[15.4 µM]	-2.4%
CC1(C)OC(=O)C(C(c2ccccc2)C(C#N)C(N)=O)=C(O)O1 (centres undefined)	0%	1.7	-0.4	-4	?	1.9%
CCOC(=O)N1CCN(C(=O)Nc2ccc3nc(C)sc3c2)CC1	-20%	2.4	-0.7	-14	-15%	-19%
CN(C)CCNC(=O)c1ccc2c(c1)N(Cc1ccccc1)C(=O)c1ccccc1S2(=O)=O	.	.	-0.1	-22	.	-1.8%

canonical_smiles	gsp antagonist	Menin MLL FP FL	TRPML1 ag	TRPML1 inh	gsp agonist	ClpP mod
CC(=O)Nc1ccc(-c2csc(NNC(=O)c3ccc(C)cc3)n2)cc1	5%	0.7	1.3	-21	-12%	0.0%
CSc1ncccc1C(=O)OCC(=O)NCCc1ccccc1	-2%	.	0.2	3	-49%[inhibitor]	0.0%
CCOC(=O)C1(CCc2ccccc2)CCN(C(=O)[C@@H]2C[C@@H](C)NC(=S)N2)CC1	-2%	-7.1	0.5	-15	-15%	.
O=C1c2ccccc2C(=O)N1CCCCON1C(=O)c2ccccc2C1=O	6%	0.3	-0.8	2	18%	-2.3%
COc1ccccc1/C=C1\SC(=S)N(CCC(=O)N2CCN(C)CC2)C1=O	-9%	-23	0.3	-11	-32%[15.4 µM]	.
COc1ccc(OCCSc2nc3ccccc3n2CC(=O)O)cc1	0%	0.1	-0.4	11	?	1.4%
CCOc1cc(/C=N\Nc2nc(Nc3ccccc3)nc(N3CCOCC3)n2)ccc1OC(=O)c1ccco1	-18%	4.9	0.1	29	?	-13%
